# Screening data from PubChem BioAssay.
# NPYLR7 ag: activates Aedes aegypti NPYLR7 receptor; HEK293T NPYLR7/Galpha15, GCaMP6s calcium fluorescence; activation, % at 10 µM; 270,000 tested, 0.15% active; AID 1259423; in the data active = activation above about 40%;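 note: 0% = vehicle and 100% = reference agonist at the receptor; some compounds past the cut are filed as inactive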
# NPYLR7 ag max-min: recorded beside NPYLR7 ag, whose call it bears; activation, %; measured here: Max-Min RFU normalised activation; some inactives read as strong as hits;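 span of the calcium signal over five minutes; 0% = vehicle and 100% = native peptide agonist; compound fluorescence can raise it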
# Active calls of the source: *; & = joins results of further samples. The list is partial (hit frequency here may not be typical).
# Every second line gives: NPYLR7 ag max-min | NPYLR7 ag
- CC(C)(C)c1cnnn1-c1ccc([N+](=O)[O-])cc1
  11 | 12
- CN1CCN(C(CNS(=O)(=O)c2cc(Cl)ccc2Cl)c2ccsc2)CC1 (configuration not stated)
  -11 | -8
- COc1ccc(-n2nc(C(=O)NCc3ccc(F)cc3)c(=O)n(Cc3cccc(OC)c3)c2=O)cc1
  9 | 12
- CCC(C(=O)Nc1c2c(nn1-c1ccc([N+](=O)[O-])cc1)CS(=O)(=O)C2)c1ccccc1 (configuration not stated)
  -4 | -1
- CCCc1[nH]n(-c2ccc(Cl)c(Cl)c2)c(=O)c1C1=C([n+]2ccccc2)C(=O)N(CCOC)C1=O
  5 | 4
- COc1ccc(CC(=O)Nc2c(C)nc3ccccn3c2=O)cc1OC
  -3 | -1
- Cc1nc(-c2cccs2)sc1C(=O)N(C)Cc1cccc(Cl)c1
  -9 | -8
- C=CCC(NCc1ccccc1)c1ccco1 (configuration not stated)
  -12 | -13
- COc1cccc(NC(=O)C(=O)N2CCCC2c2cccc3ccccc23)c1 (configuration not stated)
  53 | -1
- CCC(=O)N(Cc1ccc(F)cc1)Cc1cc(NC(=O)c2cccc(F)c2)ccc1N(C)C
  19 | 4
- O=C1CN(C(=O)COc2ccccc2)CC(O)CN1CCOc1ccccc1 (configuration not stated)
  26 | 18
- COc1cc(C(=O)Nc2ccncc2)cc(OC)c1Br
  2 | 10
- C=CCOC(=O)C1=C(C)N=c2sc(=Cc3cc(OC)ccc3OC)c(=O)n2C1c1cccs1 (configuration not stated)
  -8 | -4
- O=C(CN1CCCN(C(=O)c2cccc(Cl)c2)CC1)NC(=O)NC1CC1
  -5 | -4
- O=C(NCC1CCCN(C(=O)C2=CCCC2)C1)c1ccccc1Cl (configuration not stated)
  -4 | -1
- Cc1cc(Cl)cc2c3c([nH]c12)CCC(NC(=O)CC1C[C@@H]2CC[C@H]1C2)C3 (some centres not stated)
  14 | 27
- O=c1[nH]c(=O)c2sc3nc(-c4ccco4)cc(C(F)(F)F)c3c2[nH]1
  -14 | -9
- O=C(NCCc1ccc(Cl)cc1)N1CCN(c2ccccc2)CC1
  1 | 2
- N#Cc1nccnc1Oc1ccccc1I
  6 | 6
- O=C(O)c1ccc(CSc2nc(-c3ccccc3)cc(N3CCN(Cc4ccccc4)CC3)n2)o1
  11 | 14
- Cc1ccc2oc(=O)n(CCOc3ccc(Cl)cc3)c2c1
  15 | 10
- CCc1nc(-c2cccc(-n3ccnc3-c3ccc(OC)c(O)c3)c2)n[nH]1
  8 | 15
- COc1cc2c(cc1OC)CN(C(=O)Nc1cccnc1-n1cccn1)CC2
  1 | 1
- Cc1ccc(OCCCNCCN)c(Br)c1
  0 | -1
- O=C(CSc1nc2c(c(=O)n1-c1ccc(Cl)cc1)SCC2)NCCc1ccccc1
  29 | -1
- CC(NC(=O)CCCC[C@@H]1SC[C@@H]2NC(=O)N[C@@H]21)c1cc(F)c(Cl)cc1Cl (some centres not stated)
  15 | 0
- O=C(CSc1nc2[nH]ncc2c(=O)[nH]1)NC1CCCC1
  -5 | -2
- COc1ccc(-c2ccc(=O)n(CC(N)=O)n2)cc1
  -2 | 6
- CC(Oc1ccccc1)C(=O)Nc1nnc(C(C)C)s1 (configuration not stated)
  10 | 9
- CCC(C)N(Cc1ccc(OS(=O)(=O)CC)cc1)C(=O)c1ccc(Cl)cc1 (configuration not stated)
  0 | -5
- O=C(NC1CCCCCC1)C1(Cc2nc3ccccc3[nH]2)CCCC1
  3 | 6
- Cc1ccc(CNC(=O)C(C)N2CCN(CC(=O)Nc3cccc(F)c3)CC2)cc1 (configuration not stated)
  2 | 5
- CCCN(Cc1ccccc1F)C(=O)c1ccc[nH]1
  -5 | 2
- Cc1cc(C)nc(SCc2cc(=O)c(OC(=O)c3ccc(Cl)cc3Cl)co2)n1
  -8 | -12
- CN(CCOc1cccc(F)c1)C(=O)c1cccnc1N1CCCC1
  15 | -3
- CCN(Cc1ccc(Br)s1)C(=O)c1ccc(=O)[nH]c1
  2 | 3
- O=C(NCCCn1nc(-c2ccncc2)ccc1=O)c1ccccc1
  6 | 9
- Cc1cc(C)c(N=Nc2c(C)[nH]n(-c3nc(-c4ccc(Br)cc4)cs3)c2=O)c(C)c1
  -9 | -6
- COc1ccc(C2C(C(C)=O)=C(C)Nc3ncnn32)cc1 (configuration not stated)
  -5 | -3
- CCOC(CCCNc1ncnc2sc3c(c12)CCC3)OCC
  11 | 22
- Cc1nc2cc(C(F)(F)F)ccc2n1C1CCN(C(=O)CCC2CCCC2)CC1
  -1 | -1
- COc1ccc(Nc2nccc3[nH]c(-c4cnn(C)c4)cc23)cc1OC
  6 | 22
- O=C(NCO)c1cccnc1
  0 | 9
- CC1C(=O)N2CCCc3cc(NC(=O)C(=O)NCC4CCN(S(C)(=O)=O)CC4)cc1c32 (configuration not stated)
  -1 | 0
- COc1cc2ccccc2cc1C(=O)N(CCN(C)C)c1nc2c(F)cc(F)cc2s1
  -9 | -4
- Oc1ccccc1Nc1nc2ccccc2n2nnnc12
  -1 | 1
- Cc1ccc2c(c1)c(CNC(=O)C1CNCC(=O)N1)nn2C (configuration not stated)
  2 | 5
- CN1CCNC(=O)C12CCN(C(=O)[C@]13CC[C@](C)([C@@H](O)C1)C3(C)C)CC2
  5 | 6
- O=S(=O)(c1ccc2c(c1)OCCCO2)N1CCCC(c2nc3ccccc3s2)C1 (configuration not stated)
  -1 | -3
- Cc1ccc(S(=O)(=O)c2c(C)nn(C(C)(C)C)c2OC(=O)c2ccco2)cc1
  14 | -1

# (continued)
# Every second line gives: NPYLR7 ag max-min | NPYLR7 ag
- COc1ccc2c(c1)CC(CNC(=O)c1ccc(OC)c(OC)c1)O2 (configuration not stated)
  17 | 16
- CC(NC(=O)c1cc(NC(=O)c2ccc(-c3ccccc3)cc2)ccc1N1CCCCC1)c1ccccc1 (configuration not stated)
  -5 | -10
- CO[C@H]1C[C@H](O[C@H]2[C@H](C)[C@@H](OC3O[C@H](C)C[C@H](N(C)C)[C@H]3O)[C@@H](C)C[C@]3(CO3)C(=O)[C@H](C)[C@@H](O)[C@@H](C)[C@@H](C)OC(=O)[C@@H]2C)O[C@@H](C)[C@@H]1O (some centres not stated)
  -3&-7 | -1&-4
- CCC(C)N(Cc1c(-c2ccc(F)cc2)noc1N1CCOCC1)CC(O)COCc1ccccc1 (configuration not stated)
  12 | 8
- COc1ccc(S(=O)(=O)N2CCC(C(NC(=O)c3cccc(OC)c3)C(=O)NCC(C)C)CC2)cc1 (configuration not stated)
  11 | 12
- COCCOCC(=O)N1CCC(n2c(C(F)(F)F)nc3ccccc32)CC1
  5 | 6
- C/C=C\COC1CCCN(C(=O)c2ccco2)C1 (configuration not stated)
  -1 | -2
- Cc1ccc(N2C(=O)CC(C3CCCC=C3N3CCCCC3)C2=O)cc1 (configuration not stated)
  1 | 2
- CC(C(=O)N1CCCn2nc(C(=O)O)cc2C1)n1cnc2ccccc21 (configuration not stated)
  15 | 30
- CC1(C(=O)Nc2ccc3[nH]ncc3c2)CCN1C(=O)CC(c1ccccc1)c1ccccc1 (configuration not stated)
  10 | 11
- CCCS(=O)(=O)NCC(CCO)c1ccccc1 (configuration not stated)
  -14 | -16
- Cc1cc(C)c2sc(N(CCCN(C)C)C(=O)CCS(=O)(=O)c3ccccc3)nc2c1
  -3 | 0
- Cc1ccc(-c2nc(SCC(=O)Nc3cc(C)on3)c3c(=O)n(C)c(=O)n(C)c3n2)cc1
  -6 | -5
- Cc1ccc(NC(=O)c2ccccc2C)c(NC(=O)CCCn2cncn2)c1
  3 | 16
- O=C(c1csc2nc(-c3cccc(C(F)(F)F)c3)cn12)N1CCCC1c1nccs1 (configuration not stated)
  0 | 4
- COc1ccc(C)c2sc(=NC(=O)c3ccc(S(C)(=O)=O)cc3)n(C)c12
  11 | 9
- C#C[C@]1(O)CC[C@H]2[C@@H]3CCc4cc(OC)ccc4[C@H]3CC[C@@]21C
  -6&-3 | -4&-1
- CCCN(CC(=O)Nc1cc(C(C)(C)C)nn1-c1cccc(C)c1C)C(=O)c1ccccc1F
  -1 | -8
- O=C(CCN1CCCCO1)NCCc1nc(C(=O)O)cs1
  -2 | 2
- Cc1noc(-c2cccnc2)c1C(=O)N1CCC(Cc2ccc3c(c2)OCO3)CC1
  7 | 3
- Cc1ccc(C(=O)/C=C/N2CCN(/C=C/C(=O)c3ccc(C)cc3)CC2)cc1
  -2 | -2
- CC(C)c1[nH]n(-c2ccc(Cl)cc2)c(=O)c1C1=C(N2CCN(C)CC2)C(=O)N(c2ccc(F)cc2)C1=O
  3 | 3
- COc1ccc(CNC(=O)C(C)OC(=O)C23CC4CC(CC(C4)C2)C3)cc1 (configuration not stated)
  5 | 6
- Cc1ccccc1-c1noc(CNCc2cncn2CC(C)C)n1
  -10 | 4
- O=C(c1cncc(Br)c1)N1CCN(c2nccc(-c3cccs3)n2)CC1
  23 | 15
- c1cc(-c2cnc3c(c2)CCN3CC2CCOC2)ccn1 (configuration not stated)
  18 | 27
- Cc1cc(-c2nn3c(-c4cc(C(C)C)[nH]n4)nnc3s2)no1
  -24 | -15
- COCc1cn([C@H]2CO[C@H]3[C@@H]2OC[C@H]3OC(=O)Nc2ccc(Oc3ccccc3)cc2)nn1
  -12 | -3
- CCN(CC1CCCN(CCc2cccc(OC)c2)C1)C(=O)C[n+]1cc(=O)o[nH]1 (configuration not stated)
  0 | 2
- CNc1cncc(-c2cccc(C(=O)NCCN(C)C)c2)n1
  2 | 2
- CCOC(=O)C1(Cc2ccccc2F)CCCN(C(=O)CC(C)C)C1 (configuration not stated)
  3 | 3
- CCOC(=O)[C@@H]1[C@H](c2ccccc2)[C@@H](NC2CCN(CCc3ccccc3)CC2)[C@H]2CCCCN21
  26 | 20
- COc1cccc(CNC(=O)C2CCN(C(=O)[C@H](Cc3ccccc3)NC(=O)Nc3ccc4c(c3)CCC4)CC2)c1
  -10 | -13
- Cc1csc(C(=O)O)c1-c1c(C)csc1C(=O)O
  0 | -1
- COc1cn(C)c(C(=O)Nc2ccccc2C(C)C)cc1=O
  -8 | -6
- O=C(c1cc(-c2ccccc2F)nc2cc(-c3ccccc3)nn12)N1CCN(c2cccc(C(F)(F)F)c2)CC1
  15 | 13
- CCn1nnc2c(Nc3ccc(Oc4ccccc4)cc3)ncnc21
  10 | 5
- CN(CCNC(=O)c1cc2cccc(Br)c2o1)C1CC1
  -26 | -24
- CCCc1nn(-c2ccc(Cl)c(Cl)c2)c(CC)c1C(=O)N1CCN(CC)CC1
  16 | 7
- CCCNC(=O)C(NC(=O)c1cccc(C)c1)C1CCN(C(=O)c2cccc(F)c2)CC1 (configuration not stated)
  4 | 7
- O=S(=O)(Cc1ccc(OC(F)F)cc1)c1ncn[nH]1
  -16 | -14
- CN(C)S(=O)(=O)Oc1ccc(C(=O)c2ccccc2)cc1
  5 | 3
- COCCNC(=O)C(NC(=O)C1CC1)C1CCN(C(=O)c2ccccc2C)CC1 (configuration not stated)
  13 | 10
- Cn1cccc1C(=O)N1CCN(C(=O)CN)[C@H](C(=O)N[C@H]2CCCNC2=O)C1
  -14 | -7
- Cc1nnc(-c2ccc(C(=O)N(C)C(C)Cc3ccc(O)cc3)cc2)o1 (configuration not stated)
  21 | 0
- Cc1ccc(N2C(=O)SC(N(CC(N)=O)c3ccc(C)cc3)C2=O)cc1 (configuration not stated)
  3 | 1
- O=C(NCC1CCCO1)c1coc(CN(CCc2c[nH]c3ccccc23)Cc2ccoc2)n1 (configuration not stated)
  4 | -1
- Cc1cc(NC(=O)c2cn(Cc3cccc(F)c3)nc2OCc2cccc(F)c2)no1
  -5 | -5
- CN1CCN(C(=O)CCNS(=O)(=O)C2CCCCC2)CC1
  10 | 13
- O=c1c2nnn(Cc3ccc(F)cc3)c2ncn1C/C=C/c1ccccc1
  10 | 7

# (cont.)
# Every second line gives: NPYLR7 ag max-min | NPYLR7 ag
- COc1ccc(/C(C)=N\N2C(C)CCCC2C)c(OC)c1 (configuration not stated)
  -2 | -1
- CC(Oc1ccccc1Cl)C(=O)N1CCOC(Cc2ccccc2)C1 (configuration not stated)
  16 | 0
- CC1=C(C(=O)N2CCOCC2)C(c2cccc(F)c2)NC(=S)N1 (configuration not stated)
  0 | 1
- CC(C)Cc1cc(C(=O)N2CCC3(CCCN(C)C3=O)C2)nc(N)n1 (configuration not stated)
  3 | 5
- O=[N+]([O-])c1cccc(C=C2CCC(C=NN=Cc3ccc(Br)cc3)=C2N2CCOCC2)c1
  -4 | -4
- CC1(C(=O)O)CC[C@]2(C)CC[C@]3(C)C(=CC(=O)[C@@H]4[C@@]5(C)CC[C@H](OC(=O)CCC(=O)O)C(C)(C)C5CC[C@]43C)[C@@H]2C1 (some centres not stated)
  -10 | -8
- COCc1cc(C)nc(OCC(=O)N/N=C\c2ccc(OC)c(I)c2)c1C#N
  -7 | -5
- CCOc1cc(C2Nc3ccccc3N=C3CC(c4ccc(OC)cc4)CC(=O)C32)cc(Cl)c1O (configuration not stated)
  -19 | -13
- CC(C)(C)c1cc(N2CCOCC2)nc(SCc2cccc(C(=O)NCc3ccc4c(c3)OCO4)c2)n1
  3 | 3

# Full records, looked up by structure:
# `COc1ccc(/C(C)=N\N2C(C)CCCC2C)c(OC)c1` (configuration not stated) is listed as NPYLR7 ag max-min: -2; NPYLR7 ag: -1
# `CC1=C(C(=O)N2CCOCC2)C(c2cccc(F)c2)NC(=S)N1` (configuration not stated) is listed as NPYLR7 ag max-min: 0; NPYLR7 ag: 1
# `CC(C)Cc1cc(C(=O)N2CCC3(CCCN(C)C3=O)C2)nc(N)n1` (configuration not stated) is listed as NPYLR7 ag max-min: 3; NPYLR7 ag: 5

# Exported bar-delimited: four of the compounds above.
SMILES | NPYLR7 ag max-min | NPYLR7 ag
CC(C)Cc1cc(C(=O)N2CCC3(CCCN(C)C3=O)C2)nc(N)n1 (configuration not stated) | 3 | 5
O=[N+]([O-])c1cccc(C=C2CCC(C=NN=Cc3ccc(Br)cc3)=C2N2CCOCC2)c1 | -4 | -4
CC(Oc1ccccc1Cl)C(=O)N1CCOC(Cc2ccccc2)C1 (configuration not stated) | 16 | 0
CC(C)(C)c1cc(N2CCOCC2)nc(SCc2cccc(C(=O)NCc3ccc4c(c3)OCO4)c2)n1 | 3 | 3
